H5N1 antiviral: MDCK cell protection from H5N1 avian flu; cytopathic effect, luminescence, 72 h; hits give high values; no value below 0 was filed and about half of the inactive calls have no number; reference of the scale not given here; inhibition, % at 50 µM; hit rate 0.07% among 96,000; in the data active means inhibition above about 25%
An asterisk follows results filed as active; i = inactive. Not all compounds are listed; the hit share may differ from the screen's.

SMILES	H5N1 antiviral
CCCC1=C(C(=O)OCC)C(/C=C/c2ccccc2)n2ncnc2N1 (stereo unspecified)	i
CCc1cc(C(=O)N2CCOCC2)c(NC2=NS(=O)(=O)c3ccccc32)s1	i
CCOC(=O)C1=C(CSc2nc(C)cc(C)c2C#N)OC(N)=C(C#N)C1c1ccccc1 (stereo unspecified)	i
COc1ccc(N2CCN(C(=O)c3ccc(NS(=O)(=O)c4ccccc4)cc3)CC2)cc1	2.4
COc1ccc(-c2cn3c(n2)CCC3)cc1	i
CC(=O)NCCC(=O)Nc1cc(F)ccc1C	0.6
COc1cc(OC)cc(C(=O)NCc2n[nH]c(=S)n2-c2ccccc2)c1	i
CCOC(=O)N1CCN(C(=O)CN(Cc2ccccc2)S(C)(=O)=O)CC1	i
O=C(O)C1CC(=O)N(C2CCCCCC2)C1 (stereo unspecified)	0.6
COc1ccc(-c2nnn(CC(=O)N(CC(=O)NCCC(C)C)c3ccccc3)n2)cc1OC	i
Cc1nnc(SCC(=O)c2ccc(S(=O)(=O)N3CCOCC3)cc2)n1-c1ccccc1	1.7
Cc1nnc(C)c2c(C)n(C(c3ccccc3)c3ccccc3)c(C)c12	0.9
COc1cccc2cc(C(=O)Nc3cccnc3N3CCOCC3)c(=O)oc12	3.6
O=C(O)c1cc2cc(Cl)cc(Cl)c2oc1=O	1.4
O=C(c1ccc2ccccc2c1)N1CCN(c2ccc(C(F)(F)F)cn2)CC1	i
CCC(C)N1CC(C(=O)O)CC1=O (stereo unspecified)	0.6
COc1ccc(Cn2nnnc2C(c2ccc(C)cc2)N2CCN(C3CCCC3)CC2)cc1 (stereo unspecified)	i
CCCCN(C)Cc1c(C)[nH]c2ccc(OCC)cc2c1=O	2.0
O=C(NCc1ccco1)c1cc(-c2cccnc2)nc2ccc(Cl)cc12	i
O=C(Oc1ccc2c(-c3ccccc3)cc(=O)oc2c1)C1CCCCC1	i
O=C(CN1C(=O)c2ccccc2S1(=O)=O)Nc1ccc(S(=O)(=O)N2CCCCCC2)cc1	0.2
Cc1ccccc1NS(=O)(=O)c1cccc(-c2nnc(-c3ccccc3)o2)c1	i
CCN(CC)S(=O)(=O)c1ccc(NC(=O)CN(c2ccc(OC)cc2OC)S(C)(=O)=O)cc1	0.8
CCc1c(C(=O)c2ccc(Cl)cc2)oc2c(C)c3oc(=O)cc(C)c3cc12	i
CCOC(=O)c1ccccc1NC(=O)Cn1c(-c2nonc2N)nc2ccccc21	0.6

The list goes on; the last 6 above are carried over.
SMILES	H5N1 antiviral
O=C(Oc1ccc2c(-c3ccccc3)cc(=O)oc2c1)C1CCCCC1	i
O=C(CN1C(=O)c2ccccc2S1(=O)=O)Nc1ccc(S(=O)(=O)N2CCCCCC2)cc1	0.2
Cc1ccccc1NS(=O)(=O)c1cccc(-c2nnc(-c3ccccc3)o2)c1	i
CCN(CC)S(=O)(=O)c1ccc(NC(=O)CN(c2ccc(OC)cc2OC)S(C)(=O)=O)cc1	0.8
CCc1c(C(=O)c2ccc(Cl)cc2)oc2c(C)c3oc(=O)cc(C)c3cc12	i
CCOC(=O)c1ccccc1NC(=O)Cn1c(-c2nonc2N)nc2ccccc21	0.6
CCOc1ccc(/C=N/NC(=O)c2ccc(Cn3cc([N+](=O)[O-])cn3)o2)cc1	0.4
O=c1cc(CSc2nnc(-c3cccs3)n2Cc2ccccc2)nc2sc3ccccc3n12	i
Cc1nc2c(-c3ccccc3)c(C)nn2c(C)c1CCC(=O)O	0.5
COC(=O)[C@H](C)NC(=O)Nc1cccc(C)c1	0.9
COc1ccc(S(=O)(=O)N2CCN(c3nc4ccccc4nc3-n3nc(C)cc3C)CC2)cc1	0.9
C=CCN1C(=O)[C@]2(c3ccccc31)C1CCCC=C1C(C#N)=C(N)C2(C#N)C#N (stereo partly specified)	1.0
CC(=O)NC1=NN(C(C)=O)C(C)(c2ccccc2)S1 (stereo unspecified)	i
Cc1ncsc1CCSc1nc2ccccc2c(=O)n1C	2.6
CC(C)c1ccc(NC(=O)C(c2ccccc2)N2CCN(C=O)CC2)cc1 (stereo unspecified)	1.2
CCC1CCCCN1CCCNC(=O)C1CCC(Cn2c(=O)[nH]c3ccccc3c2=O)CC1 (stereo unspecified)	i
Cc1ccc(NC(=O)CSc2ncc(-c3ccccc3)n2C(=O)c2ccccc2)cc1	i
CS(=O)(=O)NCCOc1ccc(S(=O)(=O)N2CCCc3ccccc32)cc1	1.7
COc1ccccc1N1CCN(S(=O)(=O)c2cccs2)CC1	1.1
CN1c2cccc3cccc(c23)N(C)C1(C)C	i
Cc1ccc(-c2[nH]nc3c2C(c2ccsc2)C(C#N)=C(N)O3)cc1 (stereo unspecified)	i
Nc1nonc1-c1noc(CCCOc2ccc(Cl)cc2Cl)n1	i
Cc1cc(N)n(-c2ccccc2)n1	i
COc1cc(OC)c(C2CC(=O)N3CN(c4ccccc4)CSC3=C2C#N)cc1OC (stereo unspecified)	0.4
CC(C)CC(C(=O)NCc1ccccn1)N1C(=O)c2ccccc2C1=O (stereo unspecified)	i
O=C(c1ccccc1)c1cc(F)c(N2CCOCC2)cc1Cl	2.7
CCN(CC(=O)NCCc1ccc(S(N)(=O)=O)cc1)Cc1nc2ccccc2c(=O)[nH]1	0.6
Cc1cc(=O)[nH]c(N=N/C(=N/Nc2ccc(O)cc2)c2ccccc2)n1	i
COc1ccccc1N1CCN(Cc2nnnn2CCc2ccccc2)CC1	0.4
O=c1c2ccccc2nc(N/N=C/c2ccccc2)n1O	i
OCCN1CCN(Cc2cccc(Oc3ccc(Cl)cc3)c2)CC1	i
Other structures.
SMILES	H5N1 antiviral
Cc1ccc(N2C(=O)NC3(CCCCC3)C2=O)cc1	i
Cc1oc2c(CN(C)C)c(O)ccc2c(=O)c1-c1ccc2ccccc2n1	1.9
CC(=O)NC(CC(=O)Nc1ccc(S(=O)(=O)N2CCCC2)cc1)c1ccccc1 (stereo unspecified)	i
COCCNCCCCOc1c(Cl)cc(C)cc1Br	i
C/C(Cl)=C/Cn1c(NCCN(C)C)nc2c1c(=O)n(C)c(=O)n2C	1.2
CCOC(=O)C1=C(C)OC(N)=C(C#N)C12C(=O)Nc1ccc(C)cc12 (stereo unspecified)	0.3
Clc1ccc(-c2nnc(SCc3cn4ccsc4n3)n2CC2CCCO2)cc1 (stereo unspecified)	1.6
COc1ccccc1Oc1nc(-c2ccccc2)cc(C)c1S(C)(=O)=O	0.0
Cc1cc(S(=O)(=O)Nc2ccc(C(=O)N3CCN(C(=O)c4ccco4)CC3)cc2)ccc1F	1.2
CCCn1c(=N)n(CC(=O)C(C)(C)C)c2ccccc21	1.4
NC(=O)C1CCCN(C(=O)NC2CCCCC2)C1 (stereo unspecified)	0.1
C=CCn1c(P(=O)(O)c2ccccc2)nc2ccccc21	0.1
O=S(=O)(Nc1ccc2c(c1)OCCO2)c1cccc2nsnc12	i
O=c1[nH]c(Cc2ccccc2)nc2scc(-c3ccccc3)c12	0.4
CCOC(=O)CC1C(=O)NCCN1C(=O)COc1ccc(Br)cc1C (stereo unspecified)	i
Fc1cccc2sc(N3CCCCC3)nc12	i
O=C(c1cc2ccccc2o1)N1CCN=C1SCc1cccc(F)c1	1.0
CC(=O)c1ccccc1Oc1nc(CN2CCOCC2)nc2scc(-c3cccs3)c12	1.9
Cc1sc2nc(CN(Cc3cccs3)C(=O)NC3CCCCC3)[nH]c(=O)c2c1C	1.9
COc1ccc(C2C3=C(CCCC3=O)Nc3nc(C(F)(F)F)nn32)cc1OC (stereo unspecified)	i
NC(=O)CSc1nc2c(sc3ccccc32)c(=O)n1CCCN1CCOCC1	i
CCCCCCCCSc1nnc(CSc2nc3nc(C)cc(C)n3n2)o1	0.1
Cc1noc(NS(=O)(=O)c2ccc(NC(=O)c3ccc(Br)o3)cc2)c1C	0.5
CCCCNC(=O)CC(C(=O)N1CCc2ccccc21)n1ccnc1 (stereo unspecified)	1.1
COC(=O)c1c(C)[nH]c(C)c1-c1ccc(C)cc1	i
Further entries follow.
SMILES	H5N1 antiviral
CC(C)Cc1nc(N2CCOCC2)c(C#N)c2c1CCC2	1.5
O=C(CSc1ncn(-c2ccccc2)n1)N1CCN(c2ccccc2)CC1	1.0
CC(C)CC(/C(O)=C(\C#N)c1nc2ccccc2[nH]1)N1C(=O)c2ccccc2C1=O (stereo unspecified)	i
COCCNC(=O)CN1CCC(NC(=O)Nc2ccccc2)CC1	0.6
CCCC[n+]1ccn(C2=C([O-])c3ccccc3C(=O)/C2=N\S(=O)(=O)c2ccccc2)c1	i
CC(C)(C)NC(=O)c1cccc(NC(=O)CSc2ccccc2)c1	1.0
CN(C)c1ccc(S(=O)(=O)c2ccc(Cl)cc2)cc1	0.8
COc1ccc(-c2nnc(NC(=O)c3ccc(F)cc3)o2)cc1	4.9
OCCNCc1cc(Br)ccc1OCc1ccc(Cl)cc1	i
COc1ccc(C(=O)Nc2oc(-c3ccccc3)c(-c3ccccc3)c2C#N)cc1OC	0.8
Cc1c(CNC(=O)c2cnn3c2NC(c2ccc(Br)cc2)CC3C(F)(F)F)cnn1C (stereo unspecified)	i
O=c1[nH]n(-c2cccc(Cl)c2)c2ncccc12	i
CCn1c(=O)[nH]c2cc(C(=O)N3CCN(c4ccccc4)CC3)ccc2c1=O	0.3
COc1ccccc1NC(=O)c1nn(-c2cccc(C(F)(F)F)c2)ccc1=O	1.0
N#CC1=C(N)Oc2ccccc2C12C(=O)Nc1n[nH]c(-c3ccccc3)c12 (stereo unspecified)	i
CC(O)CN(Cc1cccc(Cl)c1)CC(C)O (stereo unspecified)	0.6
COc1ccc(C2C(C(=O)N3CCCC3)c3cc(OC)c(OC)cc3C(=O)N2C)cc1OC (stereo unspecified)	i
Cc1cc(N2CCOCC2)c2c(N)cc(C)c(C)c2n1	0.6
O=C1CCCC2=C1C(c1ccncc1)c1c(nc(SCc3ccccc3Cl)[nH]c1=O)N2 (stereo unspecified)	0.6
CCOC(=O)c1sc2nc(C)n(CC(=O)NCC3CCCO3)c(=O)c2c1C (stereo unspecified)	i
CCCC(=O)Oc1ccccc1C1SCc2cc(C)c(C)cc2CS1	i
CNC(=S)N1CCN(c2ccc(OC)cc2)CC1	0.1
O=C(CCn1c(=O)c2ccccc2n(Cc2cccnc2)c1=O)NCc1ccc2c(c1)OCO2	2.9
Cc1noc(C)c1COC(=O)C1(c2cccc(F)c2)CCCC1	2.2
Cc1ccc2c(c1)C(c1ccc(F)cc1)N(C(=O)C1CC1)CC(=O)N2 (stereo unspecified)	i

Compounds listed so far that have a tert-butyl group (two):
SMILES	H5N1 antiviral
CCCn1c(=N)n(CC(=O)C(C)(C)C)c2ccccc21	1.4
CC(C)(C)NC(=O)c1cccc(NC(=O)CSc2ccccc2)c1	1.0

Carrying on.
SMILES	H5N1 antiviral
O=S(=O)(NCc1cc(-c2ccccc2Cl)no1)c1ccccc1	i
COc1cc(C2C(C(=O)c3ccco3)=C(O)C(=O)N2Cc2cccnc2)cc(OC)c1OC (stereo unspecified)	2.0
CC(=O)NC(Cc1c[nH]c2ccccc12)C(=O)Nc1ccc2c(c1)OCO2 (stereo unspecified)	i
CC(=O)NC1(C2CCCCC2=O)CCCCC1 (stereo unspecified)	0.4
COc1ccc(NC(=O)Nc2nccs2)cc1	i
CC(C)Oc1ccc(/C(O)=C2/C(=O)C(=O)N(Cc3cccnc3)C2c2ccco2)cc1 (stereo unspecified)	i
CCCCN1CCC(C#N)(Nc2ccccc2)CC1	i
O=C(OCC(=O)c1ccc(Cl)cc1Cl)c1ccc2c(c1)C(=O)N(c1cccc3ncccc13)C2=O	1.5
C/C=C/Cn1c(N2CCCCCC2)nc2c1c(=O)[nH]c(=O)n2C	2.4
O=C1CC(N2CCN(S(=O)(=O)c3ccc(Cl)cc3)CC2)C(=O)N1CCc1ccccc1 (stereo unspecified)	2.2
CC(=N)C1=C(O)CC(C)(C)CC1=O	i
Cc1ccc(S(=O)(=O)N2CCOCC2)cc1C(=O)OCC(=O)N1CCc2ccccc2C1	0.2
CCCOc1ccc(-c2nc(C#N)c(N3CCN(CC)CC3)o2)cc1	2.1
Cc1ccc(S(=O)(=O)N2CC3(C)CN(S(=O)(=O)c4ccc(C)cc4)CC(C)(C2)C3)cc1	i
CCN=C1Cn2c(nc3scc(-c4ccccc4)c3c2=O)CN1CC	3.0
O=C(N/N=C/C(Cl)=C\c1ccccc1)c1cnccn1	i
Cc1cc(C)nc(N(C#N)S(=O)(=O)c2ccccc2Cl)n1	i
CC(=O)Nc1ccccc1C(=O)N1CC(C)OC(C)C1 (stereo unspecified)	0.1
O=C(CSc1nnc(Cc2ccccc2)o1)Nc1ccc2c(c1)OCO2	i
OC(CN1CCOCC1)C12CC3CC(CC(C3)C1)C2 (stereo unspecified)	0.0
O=C(c1ccc(Cn2c(=O)[nH]c3ccccc3c2=O)cc1)N1CCN(c2ccc(F)cc2)CC1	1.1
CCN(Cc1ccccc1)Cc1cccc([N+](=O)[O-])c1	0.6
COc1ccc2c(c1)c(CC(=O)Nc1ccc(C)cc1)c(C)n2C(=O)c1ccc(Cl)cc1	0.8
O=C(Nc1nccs1)NC1CCCCC1	i
CCC(COC(=O)Nc1cccc(C)c1C)NC(=O)OCC(C)C (stereo unspecified)	i
Remaining list, next part.
SMILES	H5N1 antiviral
O=C1CCCCCN1Cc1nnc(SCc2nc3ccccc3s2)n1-c1ccccn1	i
Cc1nc(C)c(C(=O)Nc2cccc(C)c2C)o1	0.8
CCN(CC)CCOc1ncnc2c1oc1ccccc12	i
Cc1c(NC(=O)c2ccco2)cccc1-c1nc2cccnc2s1	4.0
Clc1ccc(OCc2nc(-c3ccccn3)no2)c(Br)c1	3.3
CCOc1ccc(NC(=O)CSc2nnc(Cn3c(=O)sc4ccccc43)n2C)cc1	i
CCc1c(C)sc(NC(=O)c2ccco2)c1C(=O)N1CCOCC1	0.7

Six structures already listed, ordered by length of the SMILES, highest first:
SMILES	H5N1 antiviral
CCOc1ccc(NC(=O)CSc2nnc(Cn3c(=O)sc4ccccc43)n2C)cc1	i
O=C1CCCCCN1Cc1nnc(SCc2nc3ccccc3s2)n1-c1ccccn1	i
Clc1ccc(OCc2nc(-c3ccccn3)no2)c(Br)c1	3.3
Cc1nc(C)c(C(=O)Nc2cccc(C)c2C)o1	0.8
CCN(CC)CCOc1ncnc2c1oc1ccccc12	i
O=C(Nc1nccs1)NC1CCCCC1	i

Screening results deposited in PubChem BioAssay by SRMLSC.
